Tg IFNy HTS = T. gondii growth inhibition with IFN-gamma, primary screen, cell-based. AID 1259416, 2018. 69,000 tested, 3.8% active. activity change, negative = inhibition, %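 (about 20 µM by stock and volumes)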. Toxoplasma gondii growth in IFN-gamma-treated host cells; stronger effect = lower value; reference of the scale not given here;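 active = below -70%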;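 also: host cells are HeLa cells infected with Toxoplasma gondii; parasite growth read as luciferase light; one replicate is shown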
* hit, by the source's call; & = joins results of further samples. The list is partial; the hit share may differ from the screen's.

SMILES	Tg IFNy HTS
C[C@H]1CN([C@@H](C)CO)C(=O)c2ccccc2-c2ccccc2CO[C@H]1CN(C)Cc1cccnc1	75.6
COc1ccc(C)cc1NC(=O)CN1C(=O)CCc2cc(Br)ccc21	138.0
O=S(=O)(c1cc(F)cc(F)c1)N1CCc2onc(COCC3CC3)c2C1	-10.6
Cc1noc(C)c1S(=O)(=O)N(C)C[C@H]1Oc2ccc(N(C)C)cc2C(=O)N([C@H](C)CO)C[C@@H]1C	58.1
O=C1CCC2(CCCN(S(=O)(=O)c3cccs3)CC2)N1 (stereo not given)	-2.5
C=CC(=O)N1Cc2nnn(C)c2C(COCCN2CCCC2)C1 (stereo not given)	18.8
Cc1nc2c(c(=O)[nH]1)CSCC2	-46.3
S=C(NCCCc1cnc[nH]1)NCCCN(Cc1ccc(Cl)c(Cl)c1)c1ccc(Br)cn1	-78.1*
Cc1c(OC(=O)CNC(=O)OC(C)(C)C)ccc2c3c(c(=O)oc12)CCC3	-7.0
Nc1ccc(C(=O)Nc2cccc(-c3nc(N4CCOCC4)c4oc5ncccc5c4n3)c2)cn1	-69.7
O=C(NC1CC1)c1cc2n(n1)CCN(C(=O)CCc1ccc3c(c1)OCO3)C2	-0.8
O=C(c1cn(-c2ccccc2)nn1)N1CCSCC1	254.6
O=C1C(=O)N2C(=C1C(=O)N1CCCCCC1)c1ccccc1CC21CCCC1	117.3
CN(c1ncccn1)C1COC2(CCN(C(=O)c3cccn3C)C2)C1 (stereo not given)	4.8
C=CC(=O)Nc1cccc(Nc2nc(Nc3ccc(OCCOC)cc3)ncc2F)c1	-44.6
CN(C)C(=O)CC1CC2(CCN(Cc3cnn(C)c3)CC2)Oc2ccccc21 (stereo not given)	5.6
C[C@H](CO)N1C[C@H](C)[C@@H](CN(C)S(=O)(=O)c2cccs2)OCc2ccccc2-c2ccccc2C1=O	-2.0
O=C(NCc1ccccc1)c1nc(Nc2ccc(F)cc2)c2ccccc2n1	-2.6
Cc1nn(Cc2nnc(SCC(=O)c3ccc(Cl)cc3)o2)c(C)c1Br	-26.9
O=C1CC(n2cnc3ccccc32)C(=O)N1c1ccccc1 (stereo not given)	-23.3
Cc1noc(C)c1Cc1ccc(C(=O)N2CCCC(c3nc4ccccc4cc3N)C2)s1 (stereo not given)	234.9
CN(C)CC(=O)N1CCC2(CC1)COC(COc1cccnc1)C2 (stereo not given)	5.3
Cc1cccc(CNC(=O)CN2C(=O)CCc3cc(S(=O)(=O)N4CCCCC4C)ccc32)c1 (stereo not given)	-27.1
Cc1cccc2cc(CN(CCN3CCOCC3)C(=S)NCc3ccco3)c(=O)[nH]c12	2.6
CCNC(=O)C[C@H]1CC[C@@H]2[C@H](COC[C@H](O)CN2C(=O)C2CCCC2)O1	-36.8
Continuation:
SMILES	Tg IFNy HTS
COc1ccc(NC(=O)c2ccc3nc(-c4ccoc4)c(-c4ccoc4)nc3c2)cc1OC	57.4
O=C(c1ccc(=O)[nH]c1)N1CCC(N2CCCC(C(=O)N3CCCC3)C2)CC1 (stereo not given)	-1.8
Cc1nn(-c2ccc3ccccc3n2)c2c1C(=O)CC(C)(C)C2	-94.9*
O=C(CCc1c[nH]c2ccccc12)N1CCN(c2cc(-c3cccnc3)[nH]n2)CC1	104.0
CN(Cc1nc(N2CCCC2)ncc1-c1ccccn1)C(=O)CC1CCS(=O)(=O)C1 (stereo not given)	29.4
O=C(Nc1ccc(F)cc1)C(c1ccccc1)N(Cc1ccccc1)C(=O)c1cnccn1 (stereo not given)	-1.7
CCCCN(C)C(=O)c1nc(-c2cccc(F)c2)n2c1CCCCC2	-17.0
CCn1nc(C)c(CNC(C)CC(C)(C)OC)c1C (stereo not given)	0.2
CN(C)C(=O)c1cc(-c2cnc(Nc3ccccc3)nc2)cn1C	209.6
CC1=NN(C(=O)CSCc2ccccc2Cl)C(O)(C(F)(F)F)C1 (stereo not given)	9.5
CN1CCn2c(nnc2C2CCN(C(=O)c3ccccc3)CC2)C1	2.3
CN(Cc1cc(C2CCNCC2)nn1C)C(=O)C1CCCN(c2ccccn2)C1 (stereo not given)	-25.3
O=C(N1C[C@@H]2C3CCC(CC3)[C@@H]2C1)C1(S(=O)(=O)c2ccccc2)CC1	58.5
COc1ccccc1CN1[C@@H]2CNC[C@H]1C2c1ccc(-c2cccc(C#N)c2)cc1 (stereo not given in full)	-32.0&-25.9
CCOc1ncccc1CNC(=O)C(C)(C)NC(=O)c1cccs1	2.2
Cc1ccc(CNC(=O)c2ccc(-c3nc(CN4CCN(c5ccccc5)CC4)c(C)o3)cc2)o1	65.4
c1cnc(Nc2nccc(C3CCCN3Cc3ncc[nH]3)n2)cn1 (stereo not given)	-65.0
CC(C)COC1CC2(CCN(C(=O)c3cccn3C)CC2)C1	-49.9
CO[C@H]1CN(C)C(=O)c2ccc(NS(C)(=O)=O)cc2OC[C@H](C)N(CC2CC2)C[C@H]1C	95.0
Cn1c(SCc2csc(C3CCCCC3)n2)nc2ccccc2c1=O	-80.1*
Cc1nc(C2CCC(CNC(=O)C3Cc4ccccc4CN3C)CC2)ccc1C(N)=O (stereo not given)	13.9
Cc1ccsc1/C=N\NC(=O)c1ccc2c(c1)OCO2	242.9
O=c1[nH]c2cc(F)ccc2c(O)c1-c1nc(-c2ccncc2)no1	29.2
NCC(=O)Nc1ccccc1/C=C/c1ccccc1	68.7
O=C1C[C@@H](c2ccc(O)cc2)Oc2cc(O)cc(O)c21	33.8&53.3
Other records follow:
SMILES	Tg IFNy HTS
COc1cc(N2CC3COCC3(COc3ccc(C#N)cn3)C2)ncn1 (stereo not given)	-63.9
Cn1ncc2c1C(COCC1CC1)N(C(=O)c1ccccc1)CC2 (stereo not given)	-5.0
CCS(=O)(=O)N1CCC2(CC1)OC(=O)C(C)=C2C(=O)Nc1cc(OC)ccc1OC	82.6
COc1ccc(OC)c(S(=O)(=O)NCCc2sc(-c3cccc(C)c3)nc2C)c1	9.6
COc1ccc(S(=O)(=O)N2CCC(c3ccc4c(C)nn(C)c4n3)CC2)cc1	-90.9*
O=C(Cn1ncc2c(N3CCN(c4ccccc4)CC3)ncnc21)Nc1ccccc1Cl	225.1
Cc1nc(CN2CCCCC2CCc2ccc(O)cc2)co1 (stereo not given)	-2.6
O=C(CC1N=C2c3ccccc3N=C(SCc3ccccc3Cl)N2C1=O)NCc1ccc2c(c1)OCO2 (stereo not given)	19.7
CN(C)C(=O)CN1CCO[C@H]2CN(C(=O)c3ccc[nH]3)C[C@@H]21	4.6
C/C=C/c1ccccc1[C@@H]1[C@@H](C#N)N(C(=O)c2cccnc2)[C@H]1CO	2.1
CN(C)S(=O)(=O)N1CC2CCC1C2Oc1ccccn1 (stereo not given)	50.4
COc1ccc(-c2nc(Cn3ccn4nc(-c5ccc(OC)c(OC)c5)cc4c3=O)c(C)o2)c(OC)c1	65.7
O=S(=O)(N1CCOCC1)N1CCOC(c2ccn[nH]2)C1 (stereo not given)	-3.2
COCCN(Cc1cccs1)C(=O)c1cccc(-n2cnnc2)c1	-28.4
Cc1cccc(-c2nnc(NC(=O)Cn3c(C)nc4ccccc4c3=O)s2)c1	-24.1
CS(=O)(=O)NCc1c(Cl)cccc1Sc1ccc(Cl)cc1	-28.4
COc1cccc(NC(=O)c2c(O)c3cccnc3[nH]c2=O)c1	83.6
CCOC(=O)c1nc(Nc2ccc(Cl)cc2)c2ccccc2n1	-32.1
Cc1nc(C2CC(=O)OC23CCCCC3)cs1 (stereo not given)	1.8
CC(C)CN1C(=O)CCc2cc(NC(=O)CCc3ccccc3)ccc21	-98.2*
Cc1ccc(CNS(=O)(=O)c2ccc(C(F)(F)F)cc2)n1C	3.9
Nc1nc(NCC2CCOCC2)cc(N2CCOCC2)n1	11.5
C[C@@H]1CN([C@@H](C)CO)C(=O)c2ccccc2-c2ccccc2CO[C@@H]1CN(C)S(=O)(=O)c1cccs1	-25.0
CN1C/C(=C\c2ccccc2Cl)C2=NN(C)C(c3ccccc3Cl)C2C1 (stereo not given)	-29.6
CC(C)(C)OC(=O)Nc1cc(-c2cn[nH]c2C2CCCN(C(=O)OC(C)(C)C)C2)ccn1 (stereo not given)	-102.3*
More structures
SMILES	Tg IFNy HTS
CCCc1cc(N2CCC(N3CCSCC3)CC2)nc(C)n1	-3.8
COc1cncc(-c2ccc(F)cc2Cl)c1	-1.8
CC(=O)N1CCC2(CC1)CCn1c(-c3cnn(C)c3)cnc12	-5.9
C[C@]12CCC(=O)C=C1CCC1C2[C@@H](O)C[C@@]2(C)C1CC[C@]2(O)C(=O)COC(=O)CCC(=O)O (stereo not given in full)	5.9&13.6
CN(C)C(=O)c1ccc2c(c1)N(C)C(CC(=O)Nc1ccc(F)cc1O)CO2 (stereo not given)	-4.1
CC(C)(C)c1ccc(C(=O)NC(=O)Nc2cccnc2)s1	384.8
COc1cccc(-c2nnc(NC(=O)CN3CC(C)OC(C)C3)s2)c1OC (stereo not given)	10.8
C[C@@H](NC(=O)[C@H]1[C@H](CO)[C@H]2Cn3c(cccc3=O)[C@@H]1N2C(=O)C1CCC1)c1ccccc1	-0.6
O=C(CN1C(=O)[C@H]2CCCN2c2ncccc21)Nc1ccc2c(c1)OCCO2	7.3
CNS(=O)(=O)c1ccc(F)c(C(=O)Nc2cnn(Cc3ccccc3F)c2)c1	9.3
CCCCN(CC#Cc1ccccc1)C(=O)c1occc1C	-2.0
COc1ccc(-c2nc(NC3CCN(Cc4ccccc4)CC3)c3ccccc3n2)cc1	-51.3
COCCNC(=O)c1ccc(-c2nc(CN3CCc4ccccc43)c(C)o2)cc1	160.0
CCOc1ccc(-c2nc(CN3CCN(C(=O)Nc4ccc(C)c(Cl)c4)CC3)c(C)o2)cc1	-42.0
Cc1noc(-c2cc(=O)n(CC(=O)Nc3ccccc3C)c3ccccc23)n1	-9.4
Cn1nnnc1SCCNC1CCC2(CCNCC2)CC1	-2.4
O=C(c1ccco1)N1CCC[C@H]1Cn1nc(-c2ccc3c(c2)OCCO3)ccc1=O	-35.6
CCN(CC)c1ncnc2c1cnn2CC(=O)NCCOC	-16.2
COc1cc(-c2noc(-c3ccncc3)n2)cc(OC)c1OC	-8.5
CC(C)CC(NS(=O)(=O)c1ccc2[nH]c(=O)ccc2c1)C(=O)NC1CCCCCC1 (stereo not given)	6.5
CSc1ccc(-c2noc(-c3nnn(Cc4nc(-c5cccc(Cl)c5)oc4C)c3C)n2)cc1	135.6
COc1ccccc1C(=O)N1C[C@H]2[C@@H](c3ccccc31)[C@@H](CO)N2CC1CCCC1	4.9
COCCN1CCN(C(=O)c2cccc(C)n2)Cc2cccnc21	7.7
CNC(=O)c1cc(=O)n(CC(=O)Nc2cccc(OC)c2)c2ccccc12	12.3
Cc1oc(C2CCN(C(=O)CCCc3ccccc3)CC2)nc1C(=O)N1CCSCC1	-6.0

Arranged by SMILES length (low to high): some entries from above
SMILES	Tg IFNy HTS
Cn1nnnc1SCCNC1CCC2(CCNCC2)CC1	-2.4
CCCCN(CC#Cc1ccccc1)C(=O)c1occc1C	-2.0
COc1cc(-c2noc(-c3ccncc3)n2)cc(OC)c1OC	-8.5
CC(=O)N1CCC2(CC1)CCn1c(-c3cnn(C)c3)cnc12	-5.9
CNC(=O)c1cc(=O)n(CC(=O)Nc2cccc(OC)c2)c2ccccc12	12.3
Cc1noc(-c2cc(=O)n(CC(=O)Nc3ccccc3C)c3ccccc23)n1	-9.4
COc1ccc(-c2nc(NC3CCN(Cc4ccccc4)CC3)c3ccccc3n2)cc1	-51.3
O=C(CN1C(=O)[C@H]2CCCN2c2ncccc21)Nc1ccc2c(c1)OCCO2	7.3
O=C(c1ccco1)N1CCC[C@H]1Cn1nc(-c2ccc3c(c2)OCCO3)ccc1=O	-35.6
CC(C)CC(NS(=O)(=O)c1ccc2[nH]c(=O)ccc2c1)C(=O)NC1CCCCCC1 (stereo not given)	6.5
CSc1ccc(-c2noc(-c3nnn(Cc4nc(-c5cccc(Cl)c5)oc4C)c3C)n2)cc1	135.6
CCOc1ccc(-c2nc(CN3CCN(C(=O)Nc4ccc(C)c(Cl)c4)CC3)c(C)o2)cc1	-42.0
COc1ccccc1C(=O)N1C[C@H]2[C@@H](c3ccccc31)[C@@H](CO)N2CC1CCCC1	4.9
C[C@@H](NC(=O)[C@H]1[C@H](CO)[C@H]2Cn3c(cccc3=O)[C@@H]1N2C(=O)C1CCC1)c1ccccc1	-0.6

Next records
SMILES	Tg IFNy HTS
Cc1ccccc1CC(=O)N1CCC2(CC1)Nc1ccc(C)c(C)c1-n1cccc12	44.6
CCc1ccc(CNC(=O)c2nnn(Cc3nc(-c4cccc(C)c4)oc3C)c2C)cc1	-80.2*
O=C(NCc1cccc(F)c1)[C@@H]1[C@@H](CO)[C@@H]2Cn3c(ccc(-c4ccncc4)c3=O)[C@H]1N2CC1CC1	-5.3
CN(C)CCCNC(=O)c1ccc2ccc(N3CCN(CC4CC4)CC3)n2c1	4.6
CN(C)CCN(CC1=COCCO1)Cc1ccncc1	1.2
FC(F)Oc1cccc(CN2CCC(OCc3cccnc3)CC2)c1	-1.6
O=C(CCn1cc(C(F)(F)F)ccc1=O)Nc1cccc(C(F)(F)F)c1	-30.3
N#CCC(=O)N1N=C(C2CCCCC2)CC1(O)C(F)(F)F (stereo not given)	-41.3
CCOc1ccccc1CNc1nc(-c2nnc(-c3ccc(OC)cc3)o2)nc2ccccc12	-13.1
CCOC(=O)c1oc2cc(OCC(N)=O)ccc2c(=O)c1-c1ccc(OC)c(OC)c1	11.3
Cc1cccnc1CN1CCN(Cc2ccc(-c3ccn[nH]3)s2)CC1	-50.5
CCN1c2cc(C)ccc2-n2cccc2C12CCN(C(=O)Nc1ccc(C)cc1)CC2	-74.9*
COc1cccc(C(=O)Nc2ccc3c(c2)C(=O)N(C)[C@@H]2CC[C@@H](CC(=O)NCc4ccc(F)cc4)O[C@@H]2CO3)c1	-14.6
CN(C)S(=O)(=O)N1C[C@H]2CCC[C@]2(COCC2CCOCC2)C1	-46.2
Cc1nc(-c2cccc(F)c2)sc1CCNS(=O)(=O)c1ccc(Br)cc1	2.3
Cc1cc(C)n(CCCN(C)Cc2cc3n(n2)CCNC3)n1	20.1
O=S(=O)(Nc1cccc2nsnc12)c1ccc(Cl)s1	22.8
COc1ccc(CN(C)C(=O)c2cnc(-c3ccccc3)nc2)cc1	-7.9
